From PubChem
HPGD inh – qHTS Assay for Inhibitors of HPGD (15-Hydroxyprostaglandin Dehydrogenase) | 15-hydroxyprostaglandin dehydrogenase [NAD(+)] (Homo sapiens), P15428 | purified HPGD, NADH fluorescence kinetic, PGE2 substrate | Potency, µM, for the others: top-dose activity change, negative = inhibition, hits mostly inhibitors | actives 4.3% (n = 150,000) | AID 894, 2007; active = well fitted inhibition curve with a large enough effect (not every such curve was filed as active); inconclusive = small, poorly fitted or top-dose-only effect, or another doubt; inactive = no such curve, though single readings can be large or run the other way;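 also: top concentration of the series not given in the record; plate controls included wells without enzyme; inactives centre near -10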
Target sequence (P15428 whole entry, looked up): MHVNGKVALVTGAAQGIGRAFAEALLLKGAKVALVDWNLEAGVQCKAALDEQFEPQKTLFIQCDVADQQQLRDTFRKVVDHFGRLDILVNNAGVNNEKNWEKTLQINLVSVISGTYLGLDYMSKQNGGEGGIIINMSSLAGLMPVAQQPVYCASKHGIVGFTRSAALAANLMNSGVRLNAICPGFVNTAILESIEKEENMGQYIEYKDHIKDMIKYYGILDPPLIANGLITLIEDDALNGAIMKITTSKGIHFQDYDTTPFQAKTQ
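NADH formation kinetics: reaction with 30 uM PGE2 and 1 mM NAD+ (final), 20 nM enzyme, Tris-HCl pH 8 with Tween 20, after 15 min compound preincubation at room temperature. Fluorescence change, last versus first of five reads.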
* hit, by the source's call; ? = inconclusive; [ ] = remark or other dose. % is scaled to controls: 0 for no effect and ±100 for the full control effect; potency is read from the fitted curve at half-maximal effect. The list is partial; the hit share may differ from the screen's.

SMILES | HPGD inh
Cc1ccc(OCCN2CCNCC2)c([N+](=O)[O-])c1 | -4%
CCN=c1scc(-c2cccs2)n1/N=C/c1cc(OC)ccc1O | -18%
CC(C(=O)NCc1ccco1)n1nc(-c2ccccc2)c2cc(Cl)ccc21 (stereo not given) | -23%
Cc1c(NC(=O)CCCCCN2C(=O)c3ccccc3C2=O)c(=O)n(-c2ccccc2)n1C | -3%
COC(=O)c1ccccc1NC(=O)C1CCN(C(=O)c2cc(OC)cc(OC)c2)CC1 | -22%
Cc1[nH]ccc(=O)c1OC1OC(CO)C(O)C(O)C1O (stereo not given) | -8%
COc1cccc(N2C(=O)C3ON(c4ccccc4)C(c4cccs4)C3C2=O)c1 (stereo not given) | -10%
CC(C)N1CCc2c(sc(N)c2C#N)C1 | ?
Cc1ccc(/C=C2\CCCC3=C2NC(=S)NC3c2ccc(C)cc2)cc1 (stereo not given) | 32µM*
CC(C)(C)c1ccc(CNc2ccc([N+](=O)[O-])cn2)cc1 | -15%
CCOC(=O)c1[nH]c2ccc(Cl)cc2c1NC(=O)/C=C/c1ccc2c(c1)OCO2 | -7%
COc1ccc2c(c1)CC(C1(O)C(=O)N(C)c3ccccc31)C2=O (stereo not given) | 3%
COc1ccc(S(=O)(=O)N(C)C2CCN(C)CC2)cc1 | -9%
CC(C)c1cc(C(=O)Nc2cccnc2)no1 | -8%
CCNC(=S)NNC(=O)c1cccc(Br)c1 | -8%
CC1=CC2(O)OCCN(CCO)C2=CC1=O (stereo not given) | -3%
CC(C)Oc1cccc(C(=O)Nc2ccccc2N2CCOCC2)c1 | -13%
COc1ccc(-n2nnnc2SCC(=O)c2ccc(OC)c(OC)c2)cc1 | -17%
Cc1ccc(N=c2sc(C)c(C)n2C)cc1 | -14%
CCCCC(=O)N1CC2(C)CN(C(=O)CCCC)CC(C)(C1)C2=O | -12%

2 entries drawn at random from the list so far:
SMILES | HPGD inh
CCOC(=O)c1[nH]c2ccc(Cl)cc2c1NC(=O)/C=C/c1ccc2c(c1)OCO2 | -7%
Cc1[nH]ccc(=O)c1OC1OC(CO)C(O)C(O)C1O (stereo not given) | -8%

Next part:
SMILES | HPGD inh
CCOc1ccc(C(C)=O)cc1N1C(=O)C2C(C1=O)C1C=CC2C12CC2 (stereo not given) | -11%
O=C1c2ccccc2C(=O)N1CCCCN(C(=O)c1cc([N+](=O)[O-])cc([N+](=O)[O-])c1)c1ccc(Cl)cc1 | -7%
Cc1cc2cc3c(=O)[nH]c(=O)[nH]c3nc2cc1C | -23%
C=CCc1cccc2cc(C(=O)NCc3cccnc3)c(=O)oc12 | ?
CC(=O)Nc1ccc(NC(=O)C2CCCN(c3ncccn3)C2)cc1 (stereo not given) | -10%
COc1ccc(OC)c(C(=O)CSc2nc3ncccc3[nH]2)c1 | -18%
COc1ccc(NC(=O)Nc2ccc3nsnc3c2)cc1 | -5%
O=C(Nc1nccs1)c1ccc(S(=O)(=O)c2ccccc2)cc1 | -9%
O=C(NC1CS(=O)(=O)CC1NCc1ccco1)c1ccccc1 (stereo not given) | -10%
Cc1ccc(C)c(NC(=S)NC(C)C(c2cccs2)N2CCOCC2)c1 (stereo not given) | -11%
C[C@@H](O)c1nc2ccccc2n1N | -7%
CCOC(=O)c1c(NC(=S)Nc2ccccc2)sc2c1CCN(CCc1ccccc1)C2 | -19%
CCOC(=O)c1cc2c(ccn2-c2ccc(F)cc2)n1CC(=O)N1CCN(C(=O)c2ccco2)CC1 | -28%
O=C(N/C(=C/c1ccc2c(c1)OCO2)C(=O)N1CCOCC1)c1cccs1 | -8%
CC1=CC(C)(C)N(C(=O)CN2C(=O)c3ccccc3C2=O)c2ccccc21 | -10%
CN(CCO)C(=O)c1cccc2c1-c1ccccc1C2=O | -10%
CCCCCn1c(Sc2nc3ccccc3s2)nc2c1c(=O)[nH]c(=O)n2C | -20%
CCCCc1cc(=O)oc2c(CN(CC)CC)c(O)c(Cl)cc12 | ?
CN(CC(=O)NCCN1CCN(Cc2ccccc2)CC1)S(=O)(=O)c1cccc2nsnc12 | -15%
Cc1ccc(-c2cc(C(=O)Nc3cc(C)on3)c3ccccc3n2)cc1 | -17%
N#Cc1ccc(C23CC4(C2)[C@H](CN(P(=O)(c2ccccc2)c2ccccc2)[C@@H]4c2ccccc2)C3c2ccc(Cl)nc2)cc1 (stereo not given in full) | -16%
CCCCOc1ccc(S(=O)(=O)Nc2cc(OC)ccc2OC)cc1 | -14%
CC(/C=C1\SC(=O)N(CC(=O)Nc2cccc(O)c2)C1=O)=C\c1ccccc1 | -4%
O=C(CSc1nc2ccccc2[nH]1)c1ccc(Cl)s1 | -12%
CC(C)(C)c1ccc(S(=O)(=O)NCCOCC(F)(F)C(F)F)cc1 | -6%
Cc1nc2ccccc2c(=O)n1C1CCCCCC1 | 1%
CN1C(=O)C2(C(C#N)=C(N)N(c3cc(Cl)cc(Cl)c3)C3=C2C(=O)CCC3)c2ccccc21 (stereo not given) | 0%
Nc1ccc2ncccc2c1N | -13%
Cc1nc(CCNC(=O)Cc2ccc(Cl)cc2)cs1 | -4%
CC(C)CCCNc1nc(N2CCOCC2)nc(N2CCOCC2)n1 | -3%
O=C(CSc1nnc(Nc2ccccc2)s1)NCc1ccco1 | -12%
CN1CCC(N(C)CC(=O)Nc2cccc(Oc3ccccc3)c2)CC1 | -6%
C=CCN1C(=O)C(O)(CC(=O)c2ccc(Cl)cc2)c2ccccc21 (stereo not given) | ?
O=C(/C=C/c1ccc(-c2ccccc2)o1)c1ccccc1 | 3.5µM*
CC1CC(C)CN(S(=O)(=O)c2ccc(C(=O)NCCCn3ccnc3)cc2)C1 (stereo not given) | -13%
CC(=O)N1CCC2(CC1)CCN(C(c1ccccc1)c1ccccc1)CC2 | -4%
N[C@@H](Cc1ccnnc1)C(=O)O | -10%
N#CC1=C(N)Nc2nc3ccccc3n2C1c1ccc(Cl)cc1 (stereo not given) | -4%
CN(C)CCNC(=S)Nc1cccc(Cl)c1 | -29%
Cc1cc(C(=O)N(C)CC(=O)Nc2ccccc2C(F)(F)F)c(C)o1 | -11%

Exported as labelled records: part of the list above.
Nc1ccc2ncccc2c1N
  HPGD inh: -13%
Cc1nc(CCNC(=O)Cc2ccc(Cl)cc2)cs1
  HPGD inh: -4%
CC(C)CCCNc1nc(N2CCOCC2)nc(N2CCOCC2)n1
  HPGD inh: -3%
O=C(CSc1nnc(Nc2ccccc2)s1)NCc1ccco1
  HPGD inh: -12%

(continued)
SMILES | HPGD inh
Cc1cc(C(=O)COc2ncnc3sccc23)c(C)n1C | -14%
COc1ccc(N2CCN(C(=O)CC34CC5CC(CC(C5)C3)C4)CC2)c([N+](=O)[O-])c1 | ?
CC1CCc2nc3sc4c(c3c(N)c2C1)CCCC4 (stereo not given) | -6%
COc1cc(CC(=O)N/N=C/c2ccc([N+](=O)[O-])cc2)c([N+](=O)[O-])cc1OC | -17%
CC(=O)Nc1ccnc(-c2cccnc2)n1 | -14%
COc1ccc(NC(=O)/C(=C/c2ccc(OC(C)=O)c(OC)c2)NC(C)=O)cc1 | -14%
COc1ccc(NC(=O)CC2C(=O)N(c3ccc(Cl)cc3)C(=S)N2CCc2ccncc2)cc1 (stereo not given) | -10%
CC(C)OC(=O)c1cc2c(ccn2C)n1CC(=O)N(Cc1ccccc1)c1ccccc1 | -27%
CC(=O)OC1=Cc2c(ccc3ccc(=O)oc23)OC1(C)C | ?
Cc1coc(NC(=O)CSc2nc(-c3ccncc3)cc(C(F)(F)F)c2C#N)n1 | -25%
COc1cc(NC(=O)C23CC4CC(C2)CC(n2nnc(C)n2)(C4)C3)c(OC)cc1Cl | -11%
COC(Cn1c(C)c(C(C)=O)c(C(C)=O)c1C)OC | -1%
CN(C(=O)c1cccc(C#N)c1)c1nnc(-c2ccncc2)s1 | -7%
O=C(CCC(=O)Nc1ccccc1Cl)N/N=C/c1ccccc1 | -12%
COc1ccc(-c2cc(C(F)F)n3ncc(C(=O)N4CCN(C)CC4)c3n2)cc1 | ?
CC1c2c([nH]c3ccccc23)CCC1C(=O)O (stereo not given) | -10%
COC(=O)Cc1c(C)nc2nc(-c3ccco3)[nH]n2c1=O | ?
Cc1cc(=O)n2[nH]cc(C(=O)O)c2n1 | -22%
COc1ccc(NC(=O)/C=C/c2cc(Br)ccc2OC)cc1 | -16%
Cn1c(Cn2c(=O)sc3ccccc32)nnc1SCC(=O)Nc1cccc(F)c1 | -11%
CCOC(=O)NC(=O)CN1C(=O)NC(C)(c2ccccc2)C1=O (stereo not given) | -15%
COC(=O)c1sc2nc(CN3CCN(c4ccc(OC)cc4)CC3)[nH]c(=O)c2c1C | -11%
COc1ccc(CNC(=S)Nc2cc(OC)ccc2OC)cc1 | -11%
CCC(=O)Nc1c2c(nn1-c1ccc(OC)cc1)CS(=O)C2 (stereo not given) | 1%
Cc1ccnc(NC(=O)c2ccc([N+](=O)[O-])o2)c1 | 284%[activator]
CCN(CC)C[C@@H](O)c1ccc2ccc3ccccc3c2c1 | -1%
O=C(Nc1ccc(F)cc1F)N1CCN(C/C=C/c2ccccc2)CC1 | 0%
CCOC(=O)C(NC(=O)Nc1ccc(O)cc1)(c1ccccc1)C(F)(F)F (stereo not given) | -12%
CCCn1c(SCC(=O)Nc2ccccc2N2CCOCC2)nc2c1c(=O)n(C)c(=O)n2C | -13%
Cc1ccc2c(CNCc3ccco3)cc(=O)oc2c1 | -10%
COc1cc2cc(CN(CCO)S(=O)(=O)c3ccccc3)c(=O)[nH]c2cc1OC | ?
COC(=O)COc1cccc(-n2cnnn2)c1 | -4%
COc1cccc(C(=O)n2cnnc2N)c1OC | -19%
C=CCN1CCN(C(CC(C)C)c2nnnn2CCOC)CC1 (stereo not given) | -2%
CCOC(=O)c1cc(NC(=O)C2C3CCC(O3)C2C(=O)O)cc(C(=O)OCC)c1 (stereo not given) | -9%
COc1cc(OC)c2c(-c3cccc(/C=C/c4ccc(F)cc4)c3)cc(=O)oc2c1 | ?
CC(=O)Nc1c(Cl)n(C(C)=O)c2ccccc12 | -6%
O=C(Nc1ccc(Br)cc1)c1ccc(Br)c(S(=O)(=O)Nc2cccnc2)c1 | -21%
O=C(c1cc(N2CCCCC2)nc2ccccc12)N1CCOCC1 | -13%
Clc1ccc(/C=C/c2nc3ccccc3[nH]2)c(Cl)c1 | ?
Cn1c(Cn2c(=O)sc3ccccc32)nnc1SCC(=O)Nc1cccc(Cl)c1 | -10%
Cc1nc(CS(=O)(=O)c2ccccc2)cc(Sc2ccc(Cl)cc2Cl)n1 | -2%
Cc1nc(-c2ccc(NS(C)(=O)=O)cc2)cs1 | 16µM*
O=C(CSc1nn(-c2ccc(Cl)cc2)c(=S)s1)N1CCN(C(=O)c2ccco2)CC1 | -21%
Cc1nn(CCOc2ccccc2)c(=O)n1-c1ccccc1F | -8%
Nc1nc(NCC2CCCO2)nc(Nc2ccccc2)c1[N+](=O)[O-] (stereo not given) | -14%
COC(=O)c1sccc1NC(=O)CSc1ccc(Cl)cc1 | -2%
O=C1NC(=S)N/C1=C/c1cccc([N+](=O)[O-])c1O | -27%
CS(=O)(=O)N1CCN(c2ccc([N+](=O)[O-])c(NCCN3CCOCC3)c2)CC1 | -7%
C=CCN(CC=C)c1cnn(-c2nc3ccccc3[nH]2)c(=O)c1Cl | 215%[activator]
CC(NC(=O)NCC1CCCO1)(C(F)(F)F)C(F)(F)F (stereo not given) | -13%
CCOc1ccc(-c2nc(=S)[nH][nH]2)cc1 | ?
CC(C)(C)OC(=O)C1C(=O)CC(C)(O)C(C(=O)OC(C)(C)C)C1c1ccco1 (stereo not given) | -12%
CCCS(=O)(=O)c1nc(S(=O)(=O)c2ccc(C)cc2)c(N2CCc3ccccc3C2)s1 | -17%
Nc1nc(SC2c3cccc4cccc(c34)C2NS(=O)(=O)c2ccccc2)n[nH]1 (stereo not given) | -6%
N[C@H](C(=O)O)c1ccc(C(=O)O)cc1 | -21%
Cc1ccc(-n2c(-c3cccnc3)n[nH]c2=S)c(C)c1 | -9%
CC(C)c1ccc(C2C(C#N)=C(N)N3C(=C2C#N)Sc2ccccc23)cc1 (stereo not given) | ?
CC(C)[C@H](N)c1nnc(SCC(=O)c2ccc(Cl)cc2)o1 | -15%
O=C(CSCc1c(Cl)cccc1Cl)NN1C(=O)c2ccccc2C1=O | -6%

In the list so far, these have a COOH group:
SMILES | HPGD inh
N[C@@H](Cc1ccnnc1)C(=O)O | -10%
CC1c2c([nH]c3ccccc23)CCC1C(=O)O (stereo not given) | -10%
Cc1cc(=O)n2[nH]cc(C(=O)O)c2n1 | -22%
CCOC(=O)c1cc(NC(=O)C2C3CCC(O3)C2C(=O)O)cc(C(=O)OCC)c1 (stereo not given) | -9%
N[C@H](C(=O)O)c1ccc(C(=O)O)cc1 | -21%

(cont.)
SMILES | HPGD inh
CC1(C(=O)c2ccccc2)C2c3c(ccc4ccccc34)OC(=O)C21C(=O)N1CCOCC1 (stereo not given) | -8%
O=C(Nc1ccc2nc(-c3ccco3)c(-c3ccco3)nc2c1)N1CCN(c2ccccn2)CC1 | ?
COc1cccc(CN2CC(O)=C(c3nc(-c4ccc(Cl)cc4)cs3)C2=N)c1 | -24%
CCSc1nnnn1-c1ccccc1 | -8%
Cc1ccc2nc(S(=O)(=O)O)[nH]c2c1 | 2%
N#Cc1c(N)c(C(=O)c2ccc(Br)cc2)n2c1CCC2 | -17%
Cc1c(/C=N/NC(N)=O)c2ccccn2c1C(=O)c1ccc(F)cc1 | -9%
CCC(=O)Nc1nnc(SCC(=O)c2ccc3c(c2)Cc2ccccc2-3)s1 | -10%
COC(=O)c1cn(-c2ccccc2)nc1C(=O)OC | -12%
N#CC1=C(N)Oc2cc(Nc3ccccc3)ccc2C1c1ccncc1 (stereo not given) | -18%
